Source: PubChem BioAssay (Broad Institute)
PD-1 reversal = reversal of PD-1 mediated T-cell inhibition | activation, % (concentration not given with the values) | AID 2316 | primary human CD4 T cells, PD-L1 beads, CellTiter-Glo 96 h | 29,000 tested, under 10 active;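 active = replicate mean of 50% or more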;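 note: 0% = median vehicle wells and 100% = positive control; 100 nL library stock added to about 50 µL; numbers are from one replicate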
Hedgehog inh = Sonic Hedgehog pathway inhibition; Shh-LIGHT2 Gli-luciferase reporter, 30 h; inhibition, % (concentration not given with the values); hit rate 2.1% among 22,000;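 active = replicate mean of 65% or more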;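 note: pathway switched on by Shh-conditioned medium diluted 1 in 25 in low serum; 100 nL library stock added to about 40 µL; 0% = median of neutral wells and 100% = positive control level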
YB-1 expr inh = YB-1 expression inhibition; U2OS, qRT-PCR YB-1 vs CDIP delta delta Cp, 16 h; stronger effect = higher value; zero = DMSO, each unit about twofold; delta delta Cp (YB-1 minus CDIP) (concentration not given with the values); hit rate 0.37% among 30,000; AID 434959;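 active = delta delta Cp rounded down to an integer at or above 3, about 3 SD of DMSO wells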;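 note: higher means less YB-1 transcript or more CDIP transcript relative to DMSO; stock transfer was 100 nL into about 100 µL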
MITF inhib = MITF inhibition. TRPM1 promoter luciferase, luminescence, 24 h. inhibition, % (no concentration beside the values). hit rate 0.28% among 37,000. AID 2240;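 active = most replicates at 85% or more, or half of them and the mean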;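 note: human melanocyte line stably carrying TRPM1 promoter luciferase reporter; 0% = vehicle wells and 100% = a positive control; the first replicate is given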
* = called active by the depositor. A portion of the library, so the mix of outcomes need not match the whole.

How did C[C@@H]1CN([C@@H](C)CO)C(=O)c2cc(NS(C)(=O)=O)ccc2O[C@H]1CN(C)S(=O)(=O)c1cn(C)cn1 do in these assays?
PD-1 reversal: 0.8; YB-1 expr inh: 0.152; MITF inhib: 0.0

How did C[C@H](CO)N1C[C@H](C)[C@H](CN(C)S(=O)(=O)c2cccs2)Oc2ccc(NS(=O)(=O)c3ccc(F)cc3)cc2C1=O do in these assays?
PD-1 reversal: -4.9; Hedgehog inh: 6.5; YB-1 expr inh: -0.331; MITF inhib: -9.0

How did O=C(COc1cccc(NC(=O)c2ccc(Br)cc2)c1)c1ccc(F)cc1 do in these assays?
PD-1 reversal: -1.0; MITF inhib: 18.7

What do the screens show for `CC(C)NC(=O)Nc1cccc2c1O[C@H](CN(C)Cc1ccc3c(c1)OCO3)[C@H](C)CN([C@@H](C)CO)C2=O`?
PD-1 reversal: 0.9; Hedgehog inh: -33.9; YB-1 expr inh: 0.0042; MITF inhib: -6.2

How did Cc1noc(C)c1NC(=O)N(C)C[C@@H]1Oc2ccc(NC(=O)Cn3cnnn3)cc2CC(=O)N([C@@H](C)CO)C[C@@H]1C do in these assays?
PD-1 reversal: 0.4; YB-1 expr inh: -0.731; MITF inhib: -2.9

How did CC(C)NC(=O)N(C)C[C@@H]1Oc2c(NC(=O)Nc3ccc4c(c3)OCO4)cccc2C(=O)N([C@@H](C)CO)C[C@H]1C do in these assays?
PD-1 reversal: 1.6; Hedgehog inh: -1.4; YB-1 expr inh: -0.138; MITF inhib: 4.6

How did COc1nc(Oc2ccc(=O)[nH]n2)nc(N2CCOCC2)n1 do in these assays?
PD-1 reversal: 1.7; MITF inhib: -19.1

What do the screens show for `C[C@H]1CN([C@@H](C)CO)C(=O)c2cccc(NC(=O)c3ccc(-c4nccs4)cc3)c2O[C@H]1CN(C)S(=O)(=O)c1cccs1`?
PD-1 reversal: -2.8; Hedgehog inh: 16.8; YB-1 expr inh: 0.0845; MITF inhib: -9.9

How did C[C@@H]1CN([C@H](C)CO)C(=O)c2cccc(NS(=O)(=O)c3ccc(F)cc3)c2O[C@H]1CN(C)Cc1ccc(C(=O)Nc2ccccc2N)cc1 do in these assays?
PD-1 reversal: 0.0; YB-1 expr inh: 0.127; MITF inhib: -9.8

What do the screens show for `C[C@@H]1CCCCO[C@H](CN(C)C(=O)Nc2ccc(C(F)(F)F)cc2)[C@@H](C)CN([C@H](C)CO)C(=O)c2cc(NC(=O)Nc3ccccc3)ccc2O1`?
PD-1 reversal: -3.5; Hedgehog inh: -15.2; YB-1 expr inh: 0.14; MITF inhib: 16.0

How did C[C@@H]1CN([C@@H](C)CO)C(=O)c2cccc(NS(=O)(=O)c3ccc(F)cc3)c2O[C@H]1CN(C)Cc1ccc(C(F)(F)F)cc1 do in these assays?
PD-1 reversal: 3.1; Hedgehog inh: 33.3; YB-1 expr inh: 0.365; MITF inhib: -10.0

Results for COC(=O)c1c(NC(=S)Nc2cccc(NC(C)=O)c2)sc(C(=O)N(C)C)c1C ?
PD-1 reversal: 1.9; MITF inhib: -35.7

How did CC(=O)Nc1ccc(C(=O)CSc2nc(C)cc(=O)[nH]2)cc1 do in these assays?
PD-1 reversal: -1.7; Hedgehog inh: -7.3; YB-1 expr inh: -0.518; MITF inhib: -3.1

How did C[C@H](CO)N1C[C@H](C)[C@@H](CN(C)C(=O)Nc2ccccc2)Oc2c(NC(=O)C3CCCCC3)cccc2C1=O do in these assays?
Hedgehog inh: 1.0; YB-1 expr inh: 0.194; MITF inhib: -6.3

How did Cc1ccc(NC(=O)CCCN2C(=O)c3ccccc3C2=O)c([N+](=O)[O-])c1 do in these assays?
PD-1 reversal: 3.2; MITF inhib: -10.8

How did C[C@@H]1CCCCO[C@H](CN(C)Cc2ccc3c(c2)OCO3)[C@@H](C)CN([C@H](C)CO)C(=O)c2cc(NS(=O)(=O)c3ccc(F)cc3)ccc2O1 do in these assays?
PD-1 reversal: -1.0; Hedgehog inh: 22.4; YB-1 expr inh: 0.0731; MITF inhib: -7.5

Results for Cc1cc(C)cc(NC(=O)CN(c2ccc(Cl)cc2Cl)S(C)(=O)=O)c1 ?
PD-1 reversal: -0.3; MITF inhib: -8.8

Results for C[C@H](CO)N1C[C@H](C)[C@@H](CN(C)C(=O)Nc2cccc3ccccc23)Oc2c(NC(=O)c3ccc(-c4nccs4)cc3)cccc2C1=O ?
YB-1 expr inh: -0.229; MITF inhib: 6.3

What do the screens show for `C[C@@H]1CCCCO[C@H](CN(C)Cc2ccccc2)[C@@H](C)CN([C@H](C)CO)C(=O)c2cc(NS(=O)(=O)c3ccccc3)ccc2O1`?
PD-1 reversal: -3.8; Hedgehog inh: -24.0; YB-1 expr inh: 0.172; MITF inhib: 5.7

How did C[C@@H]1CN([C@@H](C)CO)C(=O)Cc2cc(NC(=O)NC3CCCCC3)ccc2O[C@@H]1CN(C)Cc1ccc(Cl)c(Cl)c1 do in these assays?
Hedgehog inh: 29.7; YB-1 expr inh: 0.222; MITF inhib: 47.9

Continued, starting with the last three of the part before.
Results for C[C@H](CO)N1C[C@H](C)[C@@H](CN(C)C(=O)Nc2cccc3ccccc23)Oc2c(NC(=O)c3ccc(-c4nccs4)cc3)cccc2C1=O ?
YB-1 expr inh: -0.229; MITF inhib: 6.3

What do the screens show for `C[C@@H]1CCCCO[C@H](CN(C)Cc2ccccc2)[C@@H](C)CN([C@H](C)CO)C(=O)c2cc(NS(=O)(=O)c3ccccc3)ccc2O1`?
PD-1 reversal: -3.8; Hedgehog inh: -24.0; YB-1 expr inh: 0.172; MITF inhib: 5.7

How did C[C@@H]1CN([C@@H](C)CO)C(=O)Cc2cc(NC(=O)NC3CCCCC3)ccc2O[C@@H]1CN(C)Cc1ccc(Cl)c(Cl)c1 do in these assays?
Hedgehog inh: 29.7; YB-1 expr inh: 0.222; MITF inhib: 47.9

Results for COC1OC(=O)C(CCC2(C)C(C)CCC3(C)C2CC(O)C(O)C32CO2)C1O (stereo not drawn) ?
PD-1 reversal: 2.8; Hedgehog inh: -3.0; YB-1 expr inh: 0.519; MITF inhib: -3.4

Results for C[C@H](CO)N1C[C@H](C)[C@H](CN(C)Cc2ccc(Oc3ccccc3)cc2)Oc2ccc(NC(=O)Nc3ccccc3)cc2CC1=O ?
PD-1 reversal: 0.8; Hedgehog inh: -22.6; YB-1 expr inh: -0.16; MITF inhib: -12.5

Results for COc1cnc(NS(=O)(=O)c2ccc(N)cc2)nc1 ?
Hedgehog inh: -54.1; YB-1 expr inh: 0.194; MITF inhib: 15.8

Results for C[C@H](CO)N1C[C@H](C)[C@H](CN(C)CC2CCCCC2)Oc2ccc(NC(=O)CCCN(C)C)cc2CC1=O ?
PD-1 reversal: 0.8; Hedgehog inh: 4.0; YB-1 expr inh: 0.216; MITF inhib: 0.4

How did C[C@@H]1CN([C@H](C)CO)C(=O)c2cccc(NS(=O)(=O)c3ccc(Cl)cc3)c2O[C@@H]1CN(C)Cc1ccc(Cl)c(Cl)c1 do in these assays?
PD-1 reversal: -2.8; Hedgehog inh: 22.1; YB-1 expr inh: 0.133; MITF inhib: 11.5

What do the screens show for `CC(C)NC(=O)N(C)C[C@@H]1Oc2ccc(NC(=O)CCCN(C)C)cc2C(=O)N([C@H](C)CO)C[C@@H]1C`?
PD-1 reversal: 0.3; Hedgehog inh: -19.3; YB-1 expr inh: -0.429; MITF inhib: -1.2

How did C[C@@H]1CN([C@@H](C)CO)C(=O)c2cc(NC(=O)Nc3cccc4ccccc34)ccc2O[C@H]1CN(C)S(=O)(=O)c1ccc(F)cc1 do in these assays?
Hedgehog inh: -43.9; YB-1 expr inh: 0.284; MITF inhib: -12.3

What do the screens show for `COc1ccc(NC(=O)N(C)C[C@@H]2Oc3c(NC(=O)Nc4ccccc4)cccc3C(=O)N([C@@H](C)CO)C[C@H]2C)cc1`?
PD-1 reversal: 0.1; Hedgehog inh: 7.6; YB-1 expr inh: -0.148; MITF inhib: -1.9

Results for COc1c(C2OCC(OC(C)=O)C(OC(C)=O)C2OC(C)=O)c(O)cc2oc(-c3ccc(OC4OC(CO)C(O)C(O)C4O)cc3)cc(=O)c12 (stereo not drawn) ?
PD-1 reversal: -0.8; Hedgehog inh: -12.4; YB-1 expr inh: -0.241; MITF inhib: 0.5

Results for Cc1ccc(-c2nc3ccccc3o2)cc1NC(=O)COc1ccccc1 ?
PD-1 reversal: -5.0; MITF inhib: 20.8

What do the screens show for `Cc1ccc(NC(=O)CSc2ncccn2)cc1C`?
PD-1 reversal: -0.1; MITF inhib: -60.9

What do the screens show for `C[C@H](CO)N1C[C@H](C)[C@H](CN(C)Cc2ccc(-c3ccccc3)cc2)Oc2ccc(NC(=O)Cc3cn(C)c4ccccc34)cc2CC1=O`?
PD-1 reversal: 1.0; Hedgehog inh: -46.6; YB-1 expr inh: -0.076; MITF inhib: 23.7

How did CS(=O)(=O)N(CC(=O)Nc1ccc2c(c1)OCCO2)c1cccc(F)c1 do in these assays?
PD-1 reversal: 0.5; MITF inhib: -69.9

What do the screens show for `O=S(=O)(Cc1nc(-c2ccccc2Cl)cs1)c1cccs1`?
PD-1 reversal: 2.3; Hedgehog inh: -42.5; YB-1 expr inh: 0.287; MITF inhib: -19.7

What do the screens show for `COc1ccc(NC(=O)Nc2ccc3c(c2)CC(=O)N([C@H](C)CO)C[C@H](C)[C@H](CN(C)S(C)(=O)=O)O3)cc1`?
Hedgehog inh: 42.3; YB-1 expr inh: -0.23; MITF inhib: -6.6

What do the screens show for `C[C@@H]1CN([C@H](C)CO)C(=O)c2cccc(NC(=O)c3ccncc3)c2O[C@@H]1CN(C)Cc1ccccc1`?
PD-1 reversal: -0.4; Hedgehog inh: 4.4; YB-1 expr inh: 0.0811; MITF inhib: -9.7

What do the screens show for `C[C@@H]1CN([C@@H](C)CO)C(=O)c2cc(NC(=O)Nc3cccc4ccccc34)ccc2O[C@H]1CN(C)S(=O)(=O)c1ccccc1`?
Hedgehog inh: -64.9; YB-1 expr inh: 0.311; MITF inhib: -14.0

Results for C[C@H]1CN([C@@H](C)CO)C(=O)c2cc(NC(=O)CCCCCC(=O)Nc3ccccc3N)ccc2O[C@H]1CN(C)C(=O)NC1CCCCC1 ?
PD-1 reversal: 0.4; YB-1 expr inh: -0.144; MITF inhib: 2.2

Results for C[C@H]1CN([C@@H](C)CO)C(=O)Cc2cc(NS(=O)(=O)c3ccc(F)cc3)ccc2O[C@H]1CN(C)Cc1ccc(-c2ccccc2)cc1 ?
PD-1 reversal: 2.1; Hedgehog inh: -5.1; YB-1 expr inh: -0.136; MITF inhib: 0.0

Results for COc1ccc(OC)c(NC(=O)CN(c2ccc(F)c(Cl)c2)S(C)(=O)=O)c1 ?
PD-1 reversal: -2.1; MITF inhib: -10.3

Results for CC1C(c2ccccc2)O/C(=N\S(=O)(=O)c2ccc(Cl)cc2)N1C (stereo not drawn) ?
PD-1 reversal: 0.1; Hedgehog inh: 11.3; YB-1 expr inh: 0.551; MITF inhib: -11.3

What do the screens show for `N#Cc1ccc(NC(=O)CCN2C(=O)c3ccccc3C2=O)cc1`?
PD-1 reversal: 0.7; MITF inhib: -39.6

How did C[C@H](CO)N1C[C@H](C)[C@H](CN(C)S(=O)(=O)c2cccs2)Oc2ccc(NC(=O)C3CC3)cc2C1=O do in these assays?
YB-1 expr inh: -0.0363; MITF inhib: -11.6

What do the screens show for `CCOC(=O)c1c(NC(=O)c2ccc(NS(C)(=O)=O)cc2)sc2c1CCCC2`?
PD-1 reversal: -0.2; MITF inhib: -20.4

Results for O=C(Nc1ccccc1[N+](=O)[O-])c1cc(S(=O)(=O)Nc2ccccc2)c(Cl)cc1Cl ?
PD-1 reversal: -0.7; MITF inhib: 28.9

What do the screens show for `COc1ccc(S(=O)(=O)Nc2ccc3c(c2)C(=O)N([C@H](C)CO)C[C@H](C)[C@@H](CN(C)Cc2ccc(C(F)(F)F)cc2)OCCCC[C@@H](C)O3)cc1`?
Hedgehog inh: 16.9; YB-1 expr inh: 0.144; MITF inhib: 37.0

Results for CC(C)NC(=O)N(C)C[C@H]1Oc2ccc(NC(=O)Nc3ccccc3)cc2CC(=O)N([C@H](C)CO)C[C@H]1C ?
PD-1 reversal: 1.4; Hedgehog inh: 16.5; YB-1 expr inh: -0.261; MITF inhib: -2.4

What do the screens show for `COc1ccccc1NC(=O)CNC(=O)c1ccc(OC)c(OC)c1`?
PD-1 reversal: 0.9; MITF inhib: -10.7

What do the screens show for `C=C(C)[C@@H]1CC[C@]2(C(=O)O)CC[C@]3(C)C(CCC4[C@@]5(C)C[C@@H](O)[C@H](O)C(C)(C)C5CC[C@]43C)C12` (stereo partly drawn)?
Hedgehog inh: -4.2; YB-1 expr inh: 0.882

How did COc1ccc(NC(=O)N(C)C[C@H]2Oc3ccc(NC(=O)CCC(F)(F)F)cc3C(=O)N([C@@H](C)CO)C[C@@H]2C)cc1 do in these assays?
PD-1 reversal: -0.5; Hedgehog inh: -9.0; YB-1 expr inh: -0.0643; MITF inhib: 10.9

Results for C[C@@H]1CCCCO[C@H](CN(C)Cc2ccc(C(=O)O)cc2)[C@@H](C)CN([C@H](C)CO)C(=O)c2cc(NS(=O)(=O)c3ccc(Cl)cc3)ccc2O1 ?
PD-1 reversal: 4.2; Hedgehog inh: -1.8; YB-1 expr inh: 0.087; MITF inhib: -0.5

What do the screens show for `C[C@H]1CN([C@@H](C)CO)C(=O)Cc2cc(NC(=O)CCC(F)(F)F)ccc2O[C@H]1CN(C)Cc1ccc2c(c1)OCO2`?
PD-1 reversal: -1.1; Hedgehog inh: -48.4; YB-1 expr inh: -0.467; MITF inhib: 19.0
